Screens deposited in PubChem by several laboratories.
RN4220 kill: growth inhibition of S. aureus RN4220, primary screen, OD600; 16 h; inhibition, % (no concentration beside the values); hit rate 0.33% among 330,000; AID 1259311, 2017;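 active = z-score of -3 or lower and OD600 up to 0.18 on both plates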;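 note: plate controls were untreated cells for no effect and reference antibiotic for full effect; stock transfer was 100 nL into about 80 µL; one replicate is shown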
BJeLR viability: MLPCN primary cell-based screen for lethality selective to Ras in HRASV12 cells. hit rate 0.17% among 300,000. inhibition, % (no concentration beside the values). AID 1554, 2009. BJeLR (HRASV12) viability, CellTiter-Glo ATP luminescence, 48 h; reference of the scale not given here;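 active = replicate mean above 50%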;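 note: 50 nL library stock added to about 25 µL; numbers are from one replicate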
Mtb hypoxia rep: PubChem AID 1159583 | fluorescence inhibition, % (concentration not given with the values) | M. tuberculosis hypoxia-regulated fluorescent reporter, fluorescence | hit rate 0.1% among 300,000;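 active = 35 to 45% if threefold the growth effect, above 45% if 1.5-fold the growth effect; inactive = the rest, general growth blockers included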;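 note: wells of about 50 µL received 100 nL stock; 0% = vehicle wells and 100% = reference inhibitor wells; whole bacteria with a GFP reporter of the hypoxia response; strong numbers were not always called active; many hits fall short of the cut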
Autofluor counter: flagged as autofluorescent in microsphere protease counterscreen. compound autofluorescence counterscreen, microsphere flow cytometry; hits give high values. fluorescence intensity (concentration not given with the values). hit rate 3.1% among 360,000. AID 624483;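 active = at least 3 SD above the mean of all compounds, about 16000 in these data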;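 note: 100 nL of 1 mM stock went into each well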
Sa ugtP lethal: growth inhibition of ugtP-null S. aureus, primary screen, RN4220 ugtP deletion, OD600; 16 h; some inactives read as strong as hits; growth inhibition, % (no concentration beside the values); hit rate 0.54% among 330,000;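 active = z-score under -3 and OD600 up to 0.15 on both plates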;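 note: plate controls were untreated wells for no effect and antibiotic for full effect; wells of about 80 µL received 100 nL stock; the first replicate is given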
PrP UTR inh: inhibition of PrP 5' UTR reporter expression. cell-based PrP 5' UTR mRNA reporter, plate reader. inhibition, % (test concentration not listed). hit rate 0.35% among 340,000. AID 488862, 2010;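 active = every replicate at 50% or more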;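 note: 0 = median of the neutral control wells; tested in H4 reporter cells; numbers are from one replicate; inactives centre near -14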
Mtb hypoxia rep growth: also measured in Mtb hypoxia rep; calls as there; growth inhibition, %; measured here: M. tuberculosis growth (absorbance);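 0% = vehicle and 100% = reference antibiotic; read after six days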
An asterisk follows results filed as active; nt = no result given.

SMILES | RN4220 kill | BJeLR viability | Mtb hypoxia rep | Mtb hypoxia rep growth | Autofluor counter | Sa ugtP lethal | PrP UTR inh
CC1(C)CC(=O)C(C2NCCc3ccccc32)=C(O)C1 (stereo not given) | 6.8 | 2 | nt | nt | 3057 | 0 | -6
COc1ccc2c(COC(=O)CNS(=O)(=O)c3ccccc3)cc(=O)oc2c1 | 6.9 | nt | 10 | -3 | 3680 | 4 | -11
CC(=O)Nc1ccc(S(=O)(=O)Nc2cccc3[nH]ncc23)cc1 | 4.0 | -2 | -2 | 12 | 4124 | 0 | -27
O=C(NC1CCCCCCC1)c1cccnc1 | -5.0 | -1 | 13 | 17 | 3440 | 2 | -14
COc1ccc(C(=O)NCc2nnc(SCC(=O)N3CCCC3)o2)cc1 | 2.0 | 4 | 4 | 1 | 5163 | -2 | -2
CCOC(=O)C1(Cc2cccc(Cl)c2)CCCN(C2CCN(C(C)=O)CC2)C1 (stereo not given) | 2.9 | -12 | 14 | 11 | 8984 | 3 | -15
O=C(NCCCN1CCOCC1)c1ccc(S(=O)(=O)Nc2cccc(C(F)(F)F)c2)cc1 | 2.2 | -5 | -12 | 2 | 6817 | 1 | -10
CC(C)c1ccc(NC(=O)CSc2nnc(CN3CCOCC3)n2C)cc1 | 3.8 | 5 | -2 | -8 | 5569 | 2 | -9
Cc1nc2c(=O)[nH]c(=S)n(C)c2nc1C | 7.1 | -1 | 9 | 6 | 6620 | 7 | -26
Cn1c(NCCN2CCOCC2)nc2c1c(=O)n(Cc1cccc(Cl)c1)c(=O)n2C | 3.2 | -1 | 14 | 9 | 3195 | -8 | -12
COc1cccc(C(c2nnnn2CS(=O)(=O)c2ccc(C)cc2)N2CCN(C)CC2)c1OC (stereo not given) | 2.0 | 3 | nt | nt | 4126 | 5 | -28
CCCCOC(=O)c1ccccc1C(=O)OCc1ccccc1 | 6.4 | nt | 8 | 15 | 4258 | 10 | 0
Clc1cccc(-c2nnc(-c3ccccc3)o2)c1 | 11 | 17 | nt | nt | 2818 | -5 | -60
COc1ccc(Cc2nnc3sc(SCC(=O)Nc4ccccc4)nn3c2=O)cc1OC | 0.9 | 6 | -3 | 7 | nt | 7 | -5
O=C(Nc1cccc(Br)c1)c1ccn[nH]1 | 7.1 | 5 | 22 | 8 | 21776* | -8 | -32
COc1ccc(S(=O)(=O)N2CCCCC2)cc1NC(=O)CCc1cc(OC)c(OC)c(OC)c1 | 1.4 | nt | -4 | 11 | 3912 | 4 | 4
CSc1ncccc1C(=O)OCc1ccc([N+](=O)[O-])cc1 | 10 | 5 | -8 | -2 | 4492 | 6 | -8
CCOc1ccc(C(C)NC(=O)c2ccccc2OCc2c(C)noc2C)cc1OCC (stereo not given) | 2.6 | -1 | 1 | 4 | 4714 | 8 | 4
O=C(Nc1ccc(N2CCN(C(=O)c3ccco3)CC2)c(Cl)c1)c1cccnc1 | 3.8 | -2 | 11 | 11 | 4406 | 4 | -10
Cc1ccc(/C=C2\SC(=S)N(CCC(=O)NNC(=O)c3ccncc3)C2=O)cc1 | 0.0 | -11 | -13 | -16 | 4476 | -3 | nt
Cc1cc(C)cc(-n2c(C)cc(C=NNC(=O)c3ccncc3)c2C)c1 | 0.1 | nt | 9 | 1 | nt | 1 | nt
COc1cc(Nc2nnc(C)s2)c(Cl)cc1Cl | -0.8 | 7 | nt | nt | nt | -6 | -133
CC1(C)C(c2ccccc2)=NC(c2ccc(F)cc2)N1O (stereo not given) | 6.8 | 2 | 12 | -1 | 7918 | 6 | -21
CCCCOc1cccc(C(=O)NC(=S)Nc2cccnc2)c1 | 1.0 | -1 | 5 | 2 | 2339 | -4 | -22
COc1cc2c(cc1OC)CN(C(=O)c1ccccc1C(=O)O)CC2 | -5.2 | 3 | -2 | 3 | 9433 | -10 | -17
Carrying on.
SMILES | RN4220 kill | BJeLR viability | Mtb hypoxia rep | Mtb hypoxia rep growth | Autofluor counter | Sa ugtP lethal | PrP UTR inh
OC(CN1C2=NCCCN2c2ccccc21)c1ccc(Br)cc1 (stereo not given) | -2.8 | -1 | nt | nt | 2543 | -12 | -21
CCOC(=O)c1sc(=NC(=O)CCS(=O)(=O)c2ccccc2)n(C)c1C | 9.6 | -1 | 13 | 4 | 4692 | 4 | -19
O=C(/C=C/c1ccc(S(=O)(=O)N2CCOCC2)cc1)NCCc1ccc(C(F)(F)F)cc1 | -0.7 | nt | 25* | 60* | 7695 | 3 | -27
O=C(O)c1nc2ccccc2nc1C(=O)O | 3.6 | 1 | 6 | 5 | 9202 | 1 | -46
Cc1cc(=O)n2nc(N3CCC(C(=O)NCCc4ccccc4)CC3)sc2n1 | -20 | 9 | 0 | 15 | 4231 | -9 | -14
CCN(Cc1ccccc1)C(=O)Cn1cnc2c1c(=O)n(C)c(=O)n2C | 1.7 | -6 | -9 | -1 | 20794* | 1 | -25
CCOC(=O)C1=CC[C@]2(C)c3c(c4ccccc4n3C)C(=O)C1N2C | -12 | nt | 6 | 3 | 4149 | -4 | -8
Cc1nc2ccc(NS(=O)(=O)c3ccccc3Cl)cc2s1 | 5.9 | nt | 6 | 6 | 3725 | 3 | -2
O=S1(=O)C2CC3CC[C@]2(CN1Cc1cccc(F)c1)O3 (stereo not given in full) | 2.8 | nt | 11 | 10 | nt | 0 | nt
COc1cc(OC)cc(C(=O)O/N=C(\N)c2cccc(C)c2)c1 | 3.0 | 2 | 14 | 5 | 4426 | 15 | -8
COc1ccc(-n2nnc3c(=O)n(CC(=O)Nc4cc(C)on4)cnc32)cc1OC | 4.3 | -10 | 5 | 0 | 4297 | 2 | -26
Cc1ccc(C(=O)NCC(=O)NCC(c2ccco2)N2CCCCC2)cc1C (stereo not given) | 4.1 | nt | 4 | -3 | nt | 16 | -6
Cc1cc(C(=O)C(=O)O)c(C)n1-c1ccc(Cl)cc1 | -1.4 | -2 | -11 | -13 | 3743 | 8 | -8
O=C(Nc1ccc(Oc2ccc(NC(=O)c3ccco3)c(NC(=O)c3ccco3)c2)cc1)c1ccco1 | 7.6 | -5 | -1 | -1 | 9858 | 7 | 0
Cc1ccccc1C(=O)c1c[nH]c(C(=O)NCc2ccco2)c1 | 2.2 | -6 | nt | nt | 5343 | 6 | 7
COc1ccc(/C=C/C(=O)NCCCNC(=O)/C=C/c2ccc(OC)c(OC)c2)cc1OC | 2.9 | -11 | 2 | 8 | 5572 | 7 | -30
COc1ccc(/C=C/C(=O)OCC(=O)N2CC(=O)Nc3ccccc32)cc1S(=O)(=O)N1CCOCC1 | 1.0 | -2 | 0 | 0 | 4327 | 3 | -16
CN(C)c1ccc(/C=N/N(CCO)C2=NS(=O)(=O)c3ccccc32)cc1 | nt | -4 | nt | nt | 3775 | nt | -3
CC(C)c1nc2ccccc2n1CCC(=O)O | 5.7 | 0 | 12 | 6 | 5827 | 12 | -20
Cc1ccc(NC(=O)C2CCN(S(=O)(=O)c3cnc[nH]3)CC2)nc1 | 2.5 | 4 | nt | nt | 4917 | 4 | -13
C(=NOCCc1ccccc1)c1ccncc1 | 7.3 | nt | 6 | 3 | 2813 | 4 | -63
CCC(Cc1ccccc1)NCc1c(C(=O)O)c(C)n(Cc2ccccc2)c1C (stereo not given) | 0.4 | -2 | 5 | -2 | 4289 | -3 | -28
O=S(=O)(c1ccc2c(c1)OCCO2)N(Cc1ccc(F)cc1)Cc1nnc(-c2cccs2)o1 | -2.3 | -8 | nt | nt | 4218 | -7 | -26
CN(CC(=O)Nc1ccc(Cl)c(C(F)(F)F)c1)C(=O)c1cccs1 | 5.2 | 4 | -1 | -1 | 5783 | -2 | -16
CC(C)(C)OC(=O)N1CCCN(C(=O)Nc2ccc(C(F)(F)F)cc2)CC1 | 0.0 | -7 | 2 | 10 | 3348 | -5 | nt
More structures
SMILES | RN4220 kill | BJeLR viability | Mtb hypoxia rep | Mtb hypoxia rep growth | Autofluor counter | Sa ugtP lethal | PrP UTR inh
CCOC(=O)c1c(CN2CCOCC2)n(-c2ccccc2)c2cc(Br)c(OC)cc12 | 3.6 | -23 | -1 | 2 | 6590 | 11 | -15
CC1(c2ccc3c(c2)OCO3)NC(=O)N(CC(=O)Nc2ccccc2)C1=O (stereo not given) | 0.0 | nt | 15 | 0 | 5081 | -2 | -20
COc1cc(OC)c(OC)cc1/C=C/C(=O)c1ccc(NS(=O)(=O)c2ccc(C)cc2)cc1 | -6.5 | 6 | 5 | 13 | 2949 | -16 | -10
CCN(C(=O)CSc1nc2cc(C(=O)O)ccc2c(=O)n1Cc1ccccc1)c1ccccc1 | -5.0 | 3 | 1 | -10 | 3807 | 5 | -8
Cc1cc(C)cc(C(=O)OCC(=O)NC2CCCC2)c1 | -0.3 | -6 | 5 | 3 | 3710 | 11 | -18
Cc1nn(C(=O)Cn2ccc([N+](=O)[O-])n2)c(C)c1Cl | -2.0 | 7 | 12 | 2 | 3074 | 14 | -18
COc1ccc(CN2CCN(C(=O)c3ccc(S(=O)(=O)N4CCCCCC4)cc3)CC2)cc1F | 1.4 | nt | -4 | -7 | 5217 | 6 | -14
CCOC(=O)Cc1csc(NC(=O)CSc2nc(N)c3c(C)c(C)sc3n2)n1 | 3.3 | -4 | 13 | 2 | 3965 | 5 | 0
CC/C(=N/Nc1ccccc1)c1cnnc(SC)n1 | nt | 3 | nt | nt | 3498 | nt | -3
NS(=O)(=O)c1ccc(-c2cccc(/C=C3\SC(=O)NC3=O)c2)cc1 | nt | 3 | nt | nt | 3850 | nt | -9
Cc1oc2c(CN3CCC(C)CC3)c(O)ccc2c(=O)c1-c1ccccc1 | 2.0 | -17 | -6 | 4 | 3449 | -8 | -64
FC(F)c1nc2ccccc2[nH]1 | 3.0 | 0 | -6 | -11 | 3445 | 3 | -32
Cn1c(=N)n(CC(=O)c2ccc(Cl)c(Cl)c2)c2ccccc21 | nt | 0 | nt | nt | 3723 | nt | 61*
O=C(CCn1c(=O)[nH]c2ccccc2c1=O)NCCCN1CCN(c2cccc(Cl)c2)CC1 | -2.6 | -16 | 2 | 9 | 3760 | -3 | -19
O=C(Cc1sc(-c2ccccc2)nc1-c1ccccc1)Nc1ccc(Cl)cc1 | 10 | 10 | 8 | 1 | 2570 | 4 | -11
Cc1ccc(NC(=O)c2ccc(OC(F)(F)F)cc2)cc1S(=O)(=O)N(C)C | -3.4 | 7 | -10 | 8 | 2020 | -22 | -20
Cc1ccccc1NC(=S)NCc1ccc2c(c1)cc(C)n2C | 22 | -1 | -3 | -2 | 4862 | 5 | -21
O=C(Cn1c2c(c(-c3ccccc3Cl)cc1=O)CCC2)NCCCN1CCOCC1 | 2.0 | -13 | -2 | 3 | 3396 | 2 | -16
CCOc1ccc(NC(=O)CCCn2nc(C)c3c(C)n(-c4ccccc4)nc3c2=O)cc1 | 2.3 | -14 | 11 | 3 | 4884 | -1 | -3
O=C(Cn1c(-c2ccccc2Cl)nc2ccccc21)Nc1cccc(Cl)c1 | 2.7 | 16 | 0 | 5 | 2176 | -10 | -18
O=C(Nc1ccccc1-c1nnn(CC(=O)N2CCCc3ccccc32)n1)c1ccco1 | 2.3 | -1 | 7 | 13 | 9338 | 10 | 4
CC(C)(C)c1ccc(C(=O)Nc2ccc3c(c2)C(=O)NC3=O)cc1 | 10 | -22 | -1 | 3 | 5453 | -2 | -9
Cc1cc(Cc2c(O)[nH]c(=S)[nH]c2=O)ccc1OC(C)C | 4.9 | -6 | 11 | 7 | nt | 2 | -1
Cc1nc2cc(C(F)(F)F)ccc2n1C1CCN(Cc2nnnn2Cc2ccc3c(c2)OCO3)CC1 | 2.7 | -1 | 12 | 4 | 6932 | -6 | -11
CCOC(=O)N1CCN(C(=O)COc2ccc3ccccc3c2Br)CC1 | 4.3 | 5 | 5 | 1 | 6154 | -2 | -2

2 compounds drawn at random from those above:
SMILES | RN4220 kill | BJeLR viability | Mtb hypoxia rep | Mtb hypoxia rep growth | Autofluor counter | Sa ugtP lethal | PrP UTR inh
CCN(C(=O)CSc1nc2cc(C(=O)O)ccc2c(=O)n1Cc1ccccc1)c1ccccc1 | -5.0 | 3 | 1 | -10 | 3807 | 5 | -8
CCOc1ccc(NC(=O)CCCn2nc(C)c3c(C)n(-c4ccccc4)nc3c2=O)cc1 | 2.3 | -14 | 11 | 3 | 4884 | -1 | -3

Part of the list above in order of length of the SMILES, low to high.
SMILES | RN4220 kill | BJeLR viability | Mtb hypoxia rep | Mtb hypoxia rep growth | Autofluor counter | Sa ugtP lethal | PrP UTR inh
Cc1cc(C)cc(C(=O)OCC(=O)NC2CCCC2)c1 | -0.3 | -6 | 5 | 3 | 3710 | 11 | -18
CSc1ncccc1C(=O)OCc1ccc([N+](=O)[O-])cc1 | 10 | 5 | -8 | -2 | 4492 | 6 | -8
COc1ccc2c(COC(=O)CNS(=O)(=O)c3ccccc3)cc(=O)oc2c1 | 6.9 | nt | 10 | -3 | 3680 | 4 | -11
